High-throughput results deposited in PubChem BioAssay by National Center for Advancing Translational Sciences (NCATS).
B2AR arrestin ag – qHTS assay of beta-arrestin-biased ligands of beta2-adrenergic receptor: NCGC Sytravon Library Screen. 44,000 tested, under 10 active. Potency, µM (highest dose often 46.1 µM), without a hit: at the top dose activation, usual class: activators. HTLA Tango cells, beta-arrestin recruitment, luciferase luminescence, 18 h. AID 1347077, 2019. Beta-2 adrenergic receptor (Homo sapiens), P07550;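 note: potency is the fitted concentration of half-maximal effect; 0% = DMSO and full agonism = EC100 isoproterenol or metaproterenol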
Target sequence (P07550 whole entry, looked up): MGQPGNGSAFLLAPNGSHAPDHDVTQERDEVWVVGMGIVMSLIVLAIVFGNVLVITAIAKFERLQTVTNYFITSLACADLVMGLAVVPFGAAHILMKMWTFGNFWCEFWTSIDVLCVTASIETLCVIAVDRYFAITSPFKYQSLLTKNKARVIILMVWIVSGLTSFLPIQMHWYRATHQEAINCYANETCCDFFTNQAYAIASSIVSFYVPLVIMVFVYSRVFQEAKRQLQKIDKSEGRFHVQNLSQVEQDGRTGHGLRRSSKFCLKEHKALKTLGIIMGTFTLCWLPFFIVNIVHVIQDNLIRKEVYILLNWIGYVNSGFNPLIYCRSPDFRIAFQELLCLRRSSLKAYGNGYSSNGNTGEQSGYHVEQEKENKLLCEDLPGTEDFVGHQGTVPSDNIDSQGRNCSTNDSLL
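Ligand-induced beta-arrestin recruitment to recombinant beta2-AR is measured via a tTA-driven luciferase reporter in Tango cells after 18 hr compound exposure at 37 degrees C. Concentrations span up to 46 microM.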
TSG101-PTAP inh – qHTS Validation Assay for Inhibitors of HIV-1 Budding by Blocking the Interaction of PTAP/TSG101: Sytravon Library Screen; Tumor susceptibility gene 101 protein (Homo sapiens), Q99816; Fluorescence polarization, FITC-PTAP peptide/Tsg101, 20 min; Potency, µM (doses to about 115 µM), inactives show top-dose activity change, negative = inhibition, usual class: inhibitors; 44,000 tested, under 10 active; note: potency is the fitted concentration of half-maximal effect; 0% is about no effect
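qHTS FP binding, 20 min r.t.: 10 uM Tsg101 domain + 50 nM FITC-PTAP peptide, pH 7.5 HEPES buffer with TCEP and EDTA.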
FH mod – Identification of activators of human fumarate hydratase by quantitative high-throughput screening; Fumarate hydratase, mitochondrial (Homo sapiens), P07954; FH coupled MDH/diaphorase resazurin fluorescence, 15 min; Potency, µM (doses to about 79.9 µM), for inactives: top-dose activity change, negative = inhibition, actives largely listed as inhibitors; actives 0.22% (n = 54,000); AID 1347055, 2019; note: potency is the fitted concentration of half-maximal effect; % is set by controls: 0 for no effect and ±100 for the full control effect; the screen sought activators but most active calls are inhibition curves; nearly all actives have a fitted effect of over 45% in size
Target sequence (P07954 whole entry, looked up): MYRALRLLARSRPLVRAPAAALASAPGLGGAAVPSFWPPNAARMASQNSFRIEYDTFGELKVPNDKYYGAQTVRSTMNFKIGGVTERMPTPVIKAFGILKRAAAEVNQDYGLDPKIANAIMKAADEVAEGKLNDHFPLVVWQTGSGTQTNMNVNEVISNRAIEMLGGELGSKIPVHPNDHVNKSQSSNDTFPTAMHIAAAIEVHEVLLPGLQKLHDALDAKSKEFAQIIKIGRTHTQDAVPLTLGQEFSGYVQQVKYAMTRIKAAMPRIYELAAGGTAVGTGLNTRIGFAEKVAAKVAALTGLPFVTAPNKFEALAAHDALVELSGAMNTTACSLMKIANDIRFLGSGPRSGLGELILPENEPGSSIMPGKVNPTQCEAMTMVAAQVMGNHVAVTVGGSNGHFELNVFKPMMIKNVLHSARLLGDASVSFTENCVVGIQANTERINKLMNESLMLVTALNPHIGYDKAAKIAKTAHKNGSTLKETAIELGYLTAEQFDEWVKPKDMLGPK
p53null 32C kill – qHTS Screen for Compounds that Selectively Target Cancer Cells with p53 Mutations: Cytotoxicity of p53 Null Cells at the Permissive Temperature. H1299-neo p53 null cells, ATP luminescence, 24 h, 32C. Potency, µM (highest dose often 46.1 µM), for inactives: at the top dose activity change, negative = cytotoxicity, hits mostly cytotoxic. actives 0.62% (n = 55,000). AID 903, 2007;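 note: potency is the fitted concentration of half-maximal effect; 0% = DMSO only and -100% = full killing by 100 µM tamoxifen; nearly all actives have a fitted effect of over 55% in size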
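Luminescent ATP readout gave cell viability of p53-null H1299-neo cells after a 24 h compound exposure at the permissive 32C. Titrations ran up to 46 uM, and AC50s were fitted with the standard Hill equation.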
GALK inh – qHTS Assay for Inhibitors of Human Galactokinase (GALK): NCGC Sytravon Library Screen; Potency, µM (highest dose often 57.5 µM), for inactives: at the top dose activity, negative = inhibition, most hits filed as inhibitors; 44,000 tested, under 10 active; recombinant GALK, Kinase-Glo ATP luminescence, 1 h; AID 1347072, 2019; P51570;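 note: plate controls were full GALK reaction for no effect and reaction lacking GALK for full effect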
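Human GALK (5 nM) was incubated with 35 uM ATP and 100 uM galactose in 20 mM HEPES pH 8.0 with MgCl2, NaCl, DTT and BSA for 1 h at room temperature. Remaining ATP was measured by Kinase-Glo Plus luminescence.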
p53null 39C tox – qHTS Screen for Compounds that Selectively Target Cancer Cells with p53 Mutations: Cytotoxicity of p53 Null Cells at the Nonpermissive Temperature | H1299 p53-null (neo) cells, 39C, ATPlite viability, 24 h | actives 0.97% (n = 55,000) | Potency, µM (doses to about 46.1 µM), for inactives: at the highest dose activity, negative = cell killing, actives largely listed as cytotoxic;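 note: potency is the fitted concentration of half-maximal effect; 0% = DMSO only and -100% = full killing by 100 µM tamoxifen; nearly all actives have a fitted effect of over 50% in size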
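Concentration-response (up to 46 uM) was run for 24 h at the nonpermissive 39C on H1299-p53A138V or H1299-neo cells. ATP content was measured with ATPlite luminescence. AC50 values were Hill-modeled after normalizing between DMSO and 100 uM tamoxifen killing.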
Starred values were filed as active, the others as inactive; u = inconclusive; x = no result given; & = joins results of further samples; [ ] = remark or other dose. Calls come from the whole dose curve; as a rule, active = well fitted curve in the direction sought with a large enough effect; inconclusive = small, poorly fitted or top-dose-only effect, or another doubt; inactive = no such curve, though single readings can be large; an effect the other way counts as inactive or inconclusive.

Values run as follows: B2AR arrestin ag	TSG101-PTAP inh	FH mod	p53null 32C kill	GALK inh	p53null 39C tox
COc1ccc(CCNC(=O)c2cc3c(=O)n4ccccc4nc3n2C)cc1
  -1%	-1%	3%	-5%	2%	-12%
COCCn1c(SCC(=O)Nc2cccc(C)c2C)nc2c(oc3ccccc32)c1=O
  1%	2%	-11%	2%	6%	-16%
CC(C)c1ccc(C2c3c(-c4ccccc4O)n[nH]c3C(=O)N2CCc2ccccc2)cc1 (stereo unspecified)
  u	1%	-4%	0%	-3%	-7%
COc1ccc(CNc2nc(-c3ccco3)nn2C(=O)CC(C)C)cc1
  -1%	-16%	-8%	-14%	1%	u
CCc1ccc(C(=O)c2cn(CC(=O)Nc3ccc4c(c3)OCO4)c3ccc(Cl)cc3c2=O)cc1
  0%	5%	3%	-20%	1%	u
COc1ccc2oc(=O)cc(CN3CCN(c4ccccc4F)CC3)c2c1
  -1%	-5%	-3%	-5%	3%	-20%
COc1ccc(Cc2nc3ccc(C(=O)NCc4ccccc4C)cc3o2)cc1
  0%	1%	-41%	-7%	u	-4%
COc1ccc(S(=O)(=O)N2CCCN(CC(=O)Nc3ccc(OC)cc3OC)CC2)cc1
  1%	-7%	u	x	9%	x
Cc1c2cnn(CC(=O)N3CCN(c4ccccc4)CC3)c(=O)c2c(C)n1Cc1ccccc1Cl
  -3%	-1%	-23%	0%	4%	1%
Cc1cc(C)cc(Oc2nc3ccccn3c(=O)c2/C=C(\C#N)c2nc3ccccc3s2)c1
  0%	-4%	u	-6%	4%	-8%
CCCSCCCNC(=O)c1ccc2nc(Cc3ccccc3)oc2c1
  1%	-4%	-16%	-2%	1%	-10%
COc1ccc(-n2ccnc(NCCc3ccc(Cl)cc3)c2=O)cc1OC
  0%	-4%	-6%	1%	-1%	4%
Cc1cc(C)c2c(=O)cc(C(=O)Nc3ccccc3Cl)oc2c1
  1%	0%	-7%	-4%	8%	-18%
CC1=Nc2cc(C(=O)NC3CCC(C)CC3)ccc2Sc2c(C)ccc(C)c21 (stereo unspecified)
  0%	-2%	u	27%	10%	u
Clc1ccc(-c2nc3ccccn3c2Nc2ccc3c(c2)OCCO3)s1
  1%	-1%	u	16%	1%	13%
CCc1cc2c(cc3c(=O)n(CC(=O)NC(C)C)nc(CC)n32)s1
  0%	-5%	-4%	-4%	7%	14%
CCCCN(CC)C(=O)CSc1nc2n[nH]c(C)c2c(=N)n1-c1cccc(Cl)c1
  7%	-1%	u	7%	0%	13%
CCc1ccccc1N1C(=O)N(CC(=O)c2ccc(Cl)cc2)c2ccccc2S1(=O)=O
  1%	-7%	-21%	-13%	-1%	1%
CCc1ccc(NC(=O)c2cc3c(=O)n(Cc4cccs4)ccc3nc2C)cc1
  0%	4%	u	5%	u	20%
O=C(Nc1ccccc1)c1cn(-c2ccccc2)nc1-c1ccccc1
  -2%	-1%	-28%	-1%	3%	43%[activator]
CC(C)CCNC(=O)c1ccc2nc(Cc3ccccc3)oc2c1
  1%	0%	u	19%	0%	u
COc1ccc(-c2cc(C(F)(F)F)nc(-n3nc(C(F)(F)F)cc3C)n2)cc1
  -1%	2%	-30%	1%	-8%	6%
CCCNC(=O)c1ccc2c(c1)N=C(C)c1c(C)ccc(C)c1S2
  0%	-3%	-18%	3%	-10%	u
COc1ccccc1NC(=O)CN1C(=O)CSc2ccc(S(=O)(=O)N3CCCC3)cc21
  -1%	-1%	8%	-5%	31%[activator]	13%
COc1cccc(C2C(C(=O)Nc3ccccc3)=C(C)Nc3nnnn32)c1OC (stereo unspecified)
  -2%	-1%	5%	11%	1%	-4%
Cc1ccc(C2=CC(c3c(F)cccc3Cl)n3ncnc3N2)cc1C (stereo unspecified)
  0%	-1%	-4%	-8%	2%	15%
Cc1cc(N2CCN(c3cccc(C(F)(F)F)c3)CC2)n2nc(-c3ccccc3)nc2n1
  -1%	-5%	-3%	-6%	7%	-29%
Cc1cc(C)cc(NC(=O)CN2C(=O)c3ccccc3Sc3ccc(C(=O)N4CCOCC4)cc32)c1
  -1%	2%	-26%	13%	1%	4%
CCOc1ccccc1CNC(=O)Nc1cn(CC(C)C)c(=O)c2ccccc12
  0%	1%	28µM*[activator]	6%	1%	-9%
O=C(Cn1cnc(S(=O)(=O)N2CCCC2)c1)Nc1ccccc1
  -1%	0%	9%	0%	-2%	14%

Marked active in FH mod, among the entries above:
canonical_smiles | B2AR arrestin ag | TSG101-PTAP inh | FH mod | GALK inh
CCOc1ccccc1CNC(=O)Nc1cn(CC(C)C)c(=O)c2ccccc12 | 0% | 1% | 28µM*[activator] | 1%

Entries listed so far with an aryl thioether with sulfur outside any ring, in the order listed:
Values run as follows: B2AR arrestin ag	TSG101-PTAP inh	FH mod	p53null 32C kill	GALK inh	p53null 39C tox
COCCn1c(SCC(=O)Nc2cccc(C)c2C)nc2c(oc3ccccc32)c1=O
  1%	2%	-11%	2%	6%	-16%
CCCCN(CC)C(=O)CSc1nc2n[nH]c(C)c2c(=N)n1-c1cccc(Cl)c1
  7%	-1%	u	7%	0%	13%

(continued)
Values run as follows: B2AR arrestin ag	TSG101-PTAP inh	FH mod	p53null 32C kill	GALK inh	p53null 39C tox
Cc1ccc(F)cc1NC(=O)CCSc1nc(-c2ccco2)cc(C(F)(F)F)n1
  1%	0%	-6%	0%	3%	-26%
COc1ccc(OC)c(S(=O)(=O)NCCc2sc(-c3cccnc3)nc2C)c1
  -1%	-5%	-4%	7%	2%	-2%
COCCNC(=O)CCCN1C(=O)c2ccccc2Sc2ncccc21
  -1%	-9%	6%	-5%	3%	0%
COc1ccc(S(=O)(=O)NCCc2sc(-c3cccnc3)nc2C)cc1OC
  -1%	2%	-4%	-2%	0%	3%
Cc1cccc(CCNC(=O)c2cc(S(=O)(=O)N3CCCCC3)c[nH]2)c1
  0%	-1%	-22%	-6%	4%	-10%
CC1CCc2onc(C(=O)Nc3ccc(Cl)cc3)c2C1 (stereo unspecified)
  0%	1%	-2%	-8%	2%	-1%
Cc1cc(C)cc(NC(=O)C(C)N2Cc3ccccc3C2=O)c1 (stereo unspecified)
  0%	-6%	-1%	-1%	6%	-19%
CCc1cc2c(cc3c(=O)n(CCCC(=O)NCc4cccc(Cl)c4)ncn32)s1
  1%	-3%	0%	-8%	-2%	-1%
Cc1ccc(CN2C(=O)C3(c4ccccc42)N(c2ccc(C)c(Cl)c2)C(=O)CS3(=O)=O)cc1 (stereo unspecified)
  1%	7%	-7%	13%	2%	-1%
CS(=O)(=O)N1CCc2cc(C(=O)N3CCN(c4ccc(F)cc4)CC3)ccc21
  -2%	-2%	-17%	-2%	3%	-12%
Cc1nn2c(C)c(C(=O)NCCc3ccccc3)cnc2c1-c1ccccc1
  3%	5%	u	-12%	0%	-10%
COc1ccc(Cn2ccc3nc(C)c(C(=O)Nc4ccc(C)c(F)c4)cc3c2=O)cc1
  -1%	1%	-21%	10%	-1%	-17%
CCOc1ccc(NC(=O)Cn2cc(C(=O)c3ccccc3)c(=O)c3cc4c(cc32)OCCO4)cc1
  0%	-1%	-10%	-15%	0%	-4%
Cn1c(C(=O)NCCc2ccccc2)cc2c(=O)n3ccccc3nc21
  -1%	3%	9%	-1%	2%	-9%
Cc1ccc(S(=O)(=O)Nc2ccc3c(c2)CCCN3C(=O)c2cccs2)cc1C
  1%	-2%	-6%	4%	-6%	22%
COc1ccccc1C(=O)Nc1nnc(SCc2cc(=O)c3cc(Cl)ccc3[nH]2)s1
  0%	2%	-2%	0%	3%	18%
COC(=O)c1nnn(CC(=O)NC(=O)Nc2cccc(C)c2C)c1C(=O)OC
  1%	-6%	-6%	4%	7%	-19%
COc1ccc(OC)c(CNc2ncc(-c3ccc(Cl)cc3)n2C)c1
  -2%	0%	-4%	-11%	4%	-15%
COc1cccc(-c2cc(C(F)(F)F)nc(NCCc3ccccc3)n2)c1
  1%	-3%	-22%	-8%	0%	7%
CC1CCN(c2nc3ccccc3nc2SCC(=O)Nc2ccccc2C(C)C)CC1
  -1%	0%	-22%	20%	0%	0%
CC(C)c1ccc(CNc2nc(-c3ccco3)nn2C(=O)c2ccc([N+](=O)[O-])cc2)cc1
  -2%	0%	-2%	-22%	1%	u
CCN(CC)C(=O)c1sc2c(c1C)c(=O)n(-c1ccc(C)c(C)c1)c(=O)n2Cc1cccc(Cl)c1
  -2%	16%	-30%	27%	-3%	10%
Cc1nc2cc(-c3cccc(F)c3)nn2c(C)c1CCC(=O)NCCc1ccccc1
  0%	-1%	-11%	4%	-4%	-14%
COc1ccc(NC(=O)CCCSc2nc(-c3ccco3)cc(C(F)(F)F)n2)cc1OC
  -1%	-1%	12%	16%&6%	4%	-10%&-1%
COc1ccc(NC(=O)CSc2nc(-c3cccs3)cc(C(F)(F)F)c2C#N)cc1
  -2%	18%	-16%	-6%	3%	29%
CCCCN(CC)C(=O)CSc1nc2n[nH]c(C)c2c(=N)n1-c1cccc(C)c1
  1%	2%	u	29%	-1%	28%
Cc1ccc(Nc2sc(C(=O)c3ccccc3)c(N)c2C(=O)Nc2ccc(Cl)cc2)cc1
  -3%	1%	-10%	22%	-4%	-4%
CC1=C(C(=O)Nc2cccnc2)C(c2ccc(Cl)cc2)n2nc(SCc3ccccc3)nc2N1 (stereo unspecified)
  0%	0%	1%	7%	3%	5%
CC(=O)Nc1ccccc1-c1nc2ccccc2n(C(C)C(=O)Nc2ccccc2C(F)(F)F)c1=O (stereo unspecified)
  -3%	3%	-15%	1%	1%	-7%
CCOC(=O)c1ccc(NC(=O)CSc2nc(-c3cccs3)cc(C(F)(F)F)c2C#N)cc1
  1%	u	4%	3%	0%	-6%
CCc1ccc(-n2c(SC(CC)C(=O)N(CC)CC)nc3n[nH]c(C)c3c2=N)cc1 (stereo unspecified)
  u	-3%	u	-3%	2%	10%

Structures shown so far containing a cyano group (three):
Values run as follows: B2AR arrestin ag	TSG101-PTAP inh	FH mod	p53null 32C kill	GALK inh	p53null 39C tox
Cc1cc(C)cc(Oc2nc3ccccn3c(=O)c2/C=C(\C#N)c2nc3ccccc3s2)c1
  0%	-4%	u	-6%	4%	-8%
COc1ccc(NC(=O)CSc2nc(-c3cccs3)cc(C(F)(F)F)c2C#N)cc1
  -2%	18%	-16%	-6%	3%	29%
CCOC(=O)c1ccc(NC(=O)CSc2nc(-c3cccs3)cc(C(F)(F)F)c2C#N)cc1
  1%	u	4%	3%	0%	-6%

The list is partial; count on the stated rates, not on these rows.
